PABP polyA inh: PABP poly(A) RNA binding inhibitors, primary screen, biochemical, fluorescence polarization, uHTS | 290,000 tested, 1% active | inhibition, % at 35 µM | Polyadenylate-binding protein 1 (Homo sapiens), P11940;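 active means 50% or more with normal probe brightness, or confirmed in later tests; inconclusive means above 50% with abnormal brightness, or retests that disagree; inactive means below 50% or failed in later tests; about a fifth of its hits are not listed in these tables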;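 further: calls also rest on retests at 20 µM and on dose response follow-up; controls were probe without protein and protein plus probe with vehicle; some compounds called inactive have numbers as strong as hits; many hits fall short of the cut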
Target sequence (P11940 whole entry, looked up): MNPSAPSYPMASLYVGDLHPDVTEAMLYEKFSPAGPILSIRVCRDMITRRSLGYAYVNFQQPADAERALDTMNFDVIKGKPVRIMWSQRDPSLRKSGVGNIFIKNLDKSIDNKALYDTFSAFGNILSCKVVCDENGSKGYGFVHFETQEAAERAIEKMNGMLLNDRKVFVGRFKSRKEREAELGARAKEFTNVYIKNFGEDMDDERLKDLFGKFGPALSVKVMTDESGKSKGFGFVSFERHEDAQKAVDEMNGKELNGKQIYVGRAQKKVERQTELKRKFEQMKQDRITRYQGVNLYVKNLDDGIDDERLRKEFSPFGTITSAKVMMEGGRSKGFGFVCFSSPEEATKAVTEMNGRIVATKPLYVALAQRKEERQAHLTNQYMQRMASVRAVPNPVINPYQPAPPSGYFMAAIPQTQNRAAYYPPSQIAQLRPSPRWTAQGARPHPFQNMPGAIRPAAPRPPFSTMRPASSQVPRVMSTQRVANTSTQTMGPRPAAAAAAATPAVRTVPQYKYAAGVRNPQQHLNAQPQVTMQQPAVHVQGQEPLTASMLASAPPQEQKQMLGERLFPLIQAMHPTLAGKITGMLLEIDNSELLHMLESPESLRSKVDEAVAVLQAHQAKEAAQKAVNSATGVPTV
Yeast UUG start: modulators of yeast start codon fidelity, primary screen, whole organism, S. cerevisiae, single point, plate reader; AID 602363, 2012; activity score, % at 18.7 µM; S. cerevisiae UUG-firefly luciferase reporter, luminescence/redox ratio; 350,000 tested, 0.13% active;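 active means replicate mean at a twofold rise or more, about +100% in these data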;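 further: firefly luciferase made from a UUG start codon reports start codon fidelity; reporter light over untreated wells divided by growth signal over untreated wells; some hits fall short of that in this replicate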
HIV Env fusion: inhibitors of HIV-1 Env-driven cell-cell fusion, primary screen, HeLa-JRFL effector, CEM21 target cells, luciferase. AID 651610, 2012. 360,000 tested, 1.1% active. inhibition, % at 12.3 µM;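 active means mean replicate inhibition score of at least 50 and every replicate individually at or above 50; inconclusive means only one of the two criteria met; inactive means mean below 50 and not all replicates reaching 50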;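 further: 0% = plate neutral controls and 100% = maraviroc near 300 nM; one replicate is shown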
CSC inhib: cancer stem cell viability inhibitors, primary screen, luminescence. cancer stem cell-like cells viability. inhibition, % at 7.5 µM. 300,000 tested, 1.1% active. AID 2717, 2010;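 active means mean at 75% or more and at least half the replicates too; inconclusive means mean and replicates disagree; tested in HMLE shEcad cells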;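 further: 0% = median of negative and 100% = median of positive control wells; the first replicate is given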
eIF4H inh: human eIF4H binding inhibitors, primary screen, translation initiation inhibitor project, biochemical, uHTS, fluorescence polarization; Eukaryotic translation initiation factor 4H (Homo sapiens), Q15056; eIF4H fluorescence polarization binding assay; inhibition, % at 35 µM; 290,000 tested, 0.94% active; AID 2012, 2009;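 active means 50% or more with normal probe brightness, or confirmed in later tests; inconclusive means above 50% with abnormal brightness, or retests that disagree; inactive means below 50% or failed in later tests; about a fifth of its hits are not listed in these tables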;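 further: calls also rest on retests at 20 µM and on dose response follow-up; 0% = protein and probe with vehicle and 100% = probe without protein; strong numbers were not always called active; many hits fall short of the cut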
Rce1 inhib: yeast Rce1p protease inhibitors, primary screen, biochemical, fluorescence, cell-free homogeneous | calls only | AID 2563, 2010 | yeast membranes, quenched prenylated peptide cleavage fluorescence | 290,000 tested, 0.27% active;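 active means fall in fluorescence gain of 50% or more versus controls, with final raw signal at or below 3038400; inconclusive means same 50% fall but final raw signal above 3038400; inactive means fall in fluorescence gain under 50%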;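 further: plate controls were neutral control wells for no effect and wells lacking membranes for full effect; tested at 10 µM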
Target sequence (Q03530 whole entry, looked up): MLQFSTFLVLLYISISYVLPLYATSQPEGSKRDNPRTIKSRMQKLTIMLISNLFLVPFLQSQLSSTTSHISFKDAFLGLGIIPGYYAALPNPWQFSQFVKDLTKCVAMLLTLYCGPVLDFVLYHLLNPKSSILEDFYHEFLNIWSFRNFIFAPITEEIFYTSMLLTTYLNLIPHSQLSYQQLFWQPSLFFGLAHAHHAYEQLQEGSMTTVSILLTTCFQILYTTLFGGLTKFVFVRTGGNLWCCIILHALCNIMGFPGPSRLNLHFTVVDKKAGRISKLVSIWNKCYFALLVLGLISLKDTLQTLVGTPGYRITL
MT1-MMP act inh: blockers of MT1-MMP proenzyme processing, primary screen, HT1080 RFP-PRO-GFP cells, GFP/RFP fluorescence; GFP/RFP ratio fluorescence, overnight; percent of plate control window, DMSO zero; AID 651647, 2012; 360,000 tested, 0.061% active; Matrix metalloproteinase-14 (Homo sapiens), P50281; GFP/RFP ratio change, % at 20 µM;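 active means GFP/RFP ratio change of at least 30% with cell ATP level not reduced by more than half and red fluorescence within 50% of control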; further: strong numbers were not always called active
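system = RFP-PRO-GFP reporter HT1080 cells | dosing = 20 µM single dose, 1% DMSO | timing = overnight cell settling, then overnight compound exposure, 37 °C, 5% CO2 | read-out basis = GFP/RFP fluorescence ratio | controls = DMSO and RFP-L50D-GFP cell wells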
eIF4H inh retest: recorded beside eIF4H inh, whose call it bears; inhibition, %; compound at 20 µM; confirmation average;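 mean of two retest wells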
PABP polyA inh retest: recorded beside PABP polyA inh, whose call it bears; inhibition, %; compound at 20 µM; confirmation repeats;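 mean of two retest wells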
MT1-MMP act inh RFP: further read-out of MT1-MMP act inh, marked with its call; RFP signal change, %; measured here: RFP expression control read;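 0 = vehicle wells; hits needed this value within 50% of zero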
* = called active by the depositor; i = inactive; u = inconclusive; x = no result given; & = joins results of further samples. This is a subset, so the mix of outcomes need not match the whole.

The first three records as a preview:
SMILES	PABP polyA inh	Yeast UUG start	HIV Env fusion	CSC inhib	eIF4H inh	Rce1 inhib	MT1-MMP act inh	MT1-MMP act inh RFP	others
Cc1cccc(NC(=S)NCC23C=CC(O2)C2C(=O)N(c4ccc(Cl)cc4)C(=O)C23)c1 (stereo not drawn)	-7	x	-13	5	2	i	-2	-4
O=S1(=O)[C@H]2C[C@@H]3C=C[C@@]2(CN1Cc1cccc(C(F)(F)F)c1)O3	10	-17	x	7	-7	i	4	4
CC(=O)c1cc(C#N)c(NCc2ccccc2)nc1C	-6	x	-1	-6	-2	i	9	4

Main list, repeating the preview:
SMILES	PABP polyA inh	Yeast UUG start	HIV Env fusion	CSC inhib	eIF4H inh	Rce1 inhib	MT1-MMP act inh	MT1-MMP act inh RFP	others
Cc1cccc(NC(=S)NCC23C=CC(O2)C2C(=O)N(c4ccc(Cl)cc4)C(=O)C23)c1 (stereo not drawn)	-7	x	-13	5	2	i	-2	-4
O=S1(=O)[C@H]2C[C@@H]3C=C[C@@]2(CN1Cc1cccc(C(F)(F)F)c1)O3	10	-17	x	7	-7	i	4	4
CC(=O)c1cc(C#N)c(NCc2ccccc2)nc1C	-6	x	-1	-6	-2	i	9	4
CC1(C)SC(=S)N(Cc2ccc3c(c2)OCO3)C1N(O)C(=O)NC1CCCCC1 (stereo not drawn)	8	-6	x	-9	-12	i	-5	-11
COc1ccc(-c2cc(O)cc(O)c2)cc1	-1	-40	-119	x	10	i	-1	-1
Cc1ccc(NC(=O)CN2CCOCC2)cc1S(=O)(=O)N1CCCCC1	x	6	3	-6	x	x	12	-2
Cc1cccc(-c2nnc(SCC(=O)NC3CC3)n2C)c1	2	-12	14	-1	-13	i	-4	-1
O=C(NNC(=S)NC1CC2CCC1C2)c1ccc(Cl)cc1 (stereo not drawn)	4	x	-21	2	3	i	6	-6
COc1ccc(OCCCn2c(=O)oc3ccccc32)cc1	4	x	x	6	-8	i	6	-1
COc1ccccc1NS(=O)(=O)c1cccc(C(=O)NNC(=O)c2ccc(NC(C)=O)cc2)c1	x	-13	-20	-3	x	x	0	0
Cc1ccc(CCN2CC(C(=O)NCc3ccco3)CC2=O)cc1 (stereo not drawn)	-6	5	x	5	0	i	4	2
COc1ccc(S(=O)(=O)N(C)C[C@H]2Oc3ccc(NC(=O)Nc4ccc5c(c4)OCO5)cc3C(=O)N([C@H](C)CO)C[C@@H]2C)cc1	x	-16	1	x	x	x	9	2
C[C@H]1CN([C@@H](C)CO)S(=O)(=O)c2ccc(Br)cc2O[C@@H]1CN(C)C(=O)Nc1ccc2c(c1)OCO2	x	0&6	1	x	x	x	0	3
COc1ccc(-c2noc(CCC(=O)Nc3cccnc3)n2)cc1	11	-21	-9	7	-19	i	3	-13
CC1(C)COC(c2cc([N+](=O)[O-])ccc2Cl)=N1	1	-18	x	-6	-4	i	-1	-1
CCC(C(=O)Nc1ncn[nH]1)(C(F)(F)F)C(F)(F)F	-10	-10	8	1	-12	x	3	7
COC(=O)C1=CN(Cc2ccccc2)C=C(C(=O)OC)C1c1ccc(O)c(OC)c1	5	3	15	-1	3	i	1	-1
CN(C)C(CN=C1NS(=O)(=O)c2ccccc21)c1ccco1 (stereo not drawn)	43	x	13	-7	52	i	-1	3	eIF4H inh retest=-2;PABP polyA inh retest=-11
CCCN1C2CCCC1CC(NC(=O)c1cccc(OC)c1)C2 (stereo not drawn)	1	-7	-2	31	-3	i	4	5
CC1CCCCC1NC(=O)CSc1nncn1N (stereo not drawn)	4	x	-1	-5	7	i	3	3
Cc1cc(C)c(NC(=O)CS)c(Cl)c1	-3	-3	-1	5	-14	i	-3	-5
Cc1oc(-c2cccs2)nc1CS(=O)CC(=O)NCCCOC(C)C (stereo not drawn)	7	x	-55	11	-8	i	-3	5
COc1ccc(Cc2nnc(SCC(=O)NCC3CCCO3)o2)cc1 (stereo not drawn)	3	-21	x	-5	5	i	-2	3
N#Cc1ccccc1NC(=O)COC(=O)c1cccs1	x	-13	-255	-19	x	x	2	-2
COc1ccccc1OCC(=O)Nc1cccc(C(=O)N2CCOCC2)c1	-10	6	x	-11	-19	i	1	0

The last 2 records of the section above lead into the next:
SMILES	PABP polyA inh	Yeast UUG start	HIV Env fusion	CSC inhib	eIF4H inh	Rce1 inhib	MT1-MMP act inh	MT1-MMP act inh RFP	others
N#Cc1ccccc1NC(=O)COC(=O)c1cccs1	x	-13	-255	-19	x	x	2	-2
COc1ccccc1OCC(=O)Nc1cccc(C(=O)N2CCOCC2)c1	-10	6	x	-11	-19	i	1	0
CC(C)CC1(C)NC(=O)N(CC(=O)Nc2cccc(S(=O)(=O)N(C)c3ccccc3)c2)C1=O (stereo not drawn)	-4	x	4	15	-6	i	6	4
CN(C)c1ccc(S(=O)(=O)N2CCCCC2)cc1NC(=O)COc1ccccc1F	-7	x	-5	5	0	i	6	1
COc1ccc(-n2nc3c(N4CCC(C(=O)NCc5ccco5)CC4)nnc(C)c3c2C)cc1	1	-6	x	6	7	i	-4	1
CCCCOc1ccc(-c2ncc(N)cn2)cc1	-6	-4	-19	0	-2	i	4	-3
O=C(NCc1cccc(C(F)(F)F)c1)C1CCCN(c2ncccn2)C1 (stereo not drawn)	10	-7	3	10	-4	i	5	-1
C=CCn1c(CCCOc2ccc(Cl)cc2Cl)nnc1SCC(=O)Nc1nccs1	-4	-9	21	14	0	i	-4	-9
CC(C)(C)C(=O)COC(=O)c1cccc(NC(=O)c2ccco2)c1	6	-16	-48	-8	8	i	0	-3
CCOCCCN(CC(=O)NC1CCCC1)C(=O)C(=O)Nc1ccc2c(c1)OCCO2	15	0	-1	1	7	x	2	4
Cc1ccc(C)c(N2CCN(S(=O)(=O)c3ccc4c(c3)CCC(=O)N4)CC2)c1	-10	x	x	x	-8	i	x	x
Cc1n[nH]c(C)c1S(=O)(=O)N1CCc2ccccc2C1	5	-16	1	11	-1	i	-1	2
Cc1cc(C)n2nc(SCC(=O)N(C)C)nc2n1	-5	-17	x	-3	-3	i	2	3
O=C(COC(=O)C1CC1)Nc1ccccc1Sc1ccccc1	-13	x	1	-12	3	i	3	7
Cc1cccnc1NC(=O)c1ccc(C(=O)c2ccccc2)cc1	x	-18	7	5	x	i	-2	-2
O=C(c1ccccc1)C(Cn1cncn1)C(Sc1ccccc1)c1ccccc1 (stereo not drawn)	3	9	x	0	5	i	-10	-14
COc1ccc(NC(=S)NC(NC(=O)c2cccc(Cl)c2)C(Cl)(Cl)Cl)c([N+](=O)[O-])c1 (stereo not drawn)	5	-15	24	x	11	i	6	-9
CCOc1ccc2[nH]c(=O)c(CN(CCO)C(=O)CC)cc2c1	-6	-13	x	3	-2	i	4	0
CCCCCCn1c(COc2ccccc2F)nnc1SCC(=O)N1c2ccccc2NC(=O)C1(C)C	13	-10	x	x	3	i	-35	-24
CSCc1c(C(=O)Nc2ccc3c(c2)OCO3)oc2ccccc12	0	-14	-1	16	4	i	1	2
COc1ccc(C2N(c3ccc(OC)cc3)C(=S)N3CCCN23)cc1 (stereo not drawn)	22	x	21	0	-3	i	3	2
O=C(Cc1ccc([N+](=O)[O-])cc1)N/N=C/c1cccs1	2	9	x	-10	10	i	4	3
CCCCN1C(=O)C(CC(=O)NC2CC2)CC(C(=O)N(CC)CC)=C1C (stereo not drawn)	x	-13	-1	x	x	x	3	3
O=C(N/C(=C\c1ccc(F)cc1)C(=O)N1CCCCCC1)c1ccccc1	-9	10	8	32	7	i	4	4
Cc1cn([C@H]2C[C@H](O)[C@@H](COS(=O)(=O)O)O2)c(=O)[nH]c1=O	x	-3	5	6	x	x	6	2
COc1ccccc1NC(=O)c1cnc(SCC(=O)NCCc2ccccc2)n(C)c1=O	x	-22	-36	-12	x	i	1	-4
CCc1ccccc1NC(=O)CCc1nc(-c2ccc(C)cc2)no1	4	-16	x	-8	-15	x	6	-5
Next section:
SMILES	PABP polyA inh	Yeast UUG start	HIV Env fusion	CSC inhib	eIF4H inh	Rce1 inhib	MT1-MMP act inh	MT1-MMP act inh RFP	others
CCOC(=O)c1c(C)[nH]c(N=Nc2ccc(C)cc2C)c1C	-7	-6	-93	-7	-11	i	1	2
N#CCCN(C(=O)c1ccc2c(=O)n3c(nc2c1)CCCCC3)c1ccccc1	x	0	10	-12	x	i	0	0
COc1cccc(CNC(=O)N2CCN(c3ccccc3Cl)CC2)c1	5	2	0	1	-3	x	0	2
Cc1csc(=O)n1CC(=O)OCC(=O)Nc1ccc(C(N)=O)cc1	x	-7	x	-7	x	x	-1	0
Cc1sc2ncn(CC(=O)NCCCC(=O)NCc3ccc(F)cc3)c(=O)c2c1C	-10	-21	-15	-29	-20	x	-2	-2
Cc1cc[n+](-c2[nH]c(=O)sc2/C=N/N=C(\[O-])c2ccccc2)cc1C	-2	x	7	x	u	i	-58	2
CCC(C)NC(=O)c1ccc([N+](=O)[O-])c(Cl)c1 (stereo not drawn)	3	-12	x	-8	-9	i	9	4
CCN(CC(=O)Nc1ccccc1OC)C(=O)CN1C(=O)NC(C)(c2ccccc2)C1=O (stereo not drawn)	x	-24	0	x	x	x	1	2
Cc1cccc(CSc2nnc(-c3ccco3)o2)c1	-9	x	2	9	-2	i	3	0
C=CCn1c(-c2ccoc2)n[nH]c1=S	-2	-11	x	-3	2	i	-1	1
COc1ccc(NC(=O)c2ccc3c(c2)OCO3)cc1Cl	14	-1	i	x	-6	i	2	0
CC1CCCCC1NCC(=O)Nc1ccccc1C(=O)Nc1ccccc1 (stereo not drawn)	x	-16	-70	-14	x	x	1	8
C=CCNC(=O)/C(C#N)=C/c1cn(-c2ccccc2)nc1-c1ccc(OC)c([N+](=O)[O-])c1	67	1	-74	10	-2	i	3	0	eIF4H inh retest=4;PABP polyA inh retest=23
O=S1(=O)N=C(N(CCO)/N=C/c2ccccc2F)c2ccccc21	14	x	-5	-10	-8	i	-9	-5
CC(=O)NCCn1c(SCC(=O)NCCc2ccc(S(N)(=O)=O)cc2)nc2ccccc2c1=O	-2	x	1	x	-3	i	0	1
Cc1ccc(N=Cc2cccc(O)c2O)c(C)c1	31*	3	28	u	99*	i	19	-7	eIF4H inh retest=85*;PABP polyA inh retest=63*
COc1cc(/C=N/n2c(-c3cc(C)[nH]n3)n[nH]c2=S)cc(OC)c1OC	4	-20	-9	-1	-9	i	4	3
COc1ccc(CN(C(=O)c2ccco2)c2ccccc2)cc1	-7	-4	x	-5	1	i	5	5
COc1ccccc1NC(=O)C1Cc2ccccc2CN1C(=O)c1ccco1 (stereo not drawn)	4	7	2	-5	7	i	-3	-2
CC/C(Cc1ccccc1)=N/NC(=O)c1cccc(Br)c1	10	x	2	-22	-1	i	3	5
CCC(C)N(C(=O)COC(=O)c1cc([N+](=O)[O-])ccc1N)C1CCS(=O)(=O)C1 (stereo not drawn)	-12	-8	70*	-14	-11	i	-1	3
O=C(CCCN1C(=O)C2CC=CCC2C1=O)Nc1cccc(F)c1 (stereo not drawn)	16	-5	11	-9	-3	i	0	4
Cc1ccc(N2CC(C(=O)NCCc3ccc(S(N)(=O)=O)cc3)CC2=O)cc1 (stereo not drawn)	-7	-14	x	5	-3	i	2	4
